# Source: PubChem
# CapD inh: blocks the Bacillus anthracis CapD enzyme. purified CapD enzyme, fluorescence intensity read-out; stronger effect = lower value; some hits fall short of the stated cut. AID 492967. z-score (concentration not given with the values). actives 0.23% (n = 140,000);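 active = z-score under -4 in either of two replicates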;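 also: stock transfer was 100 nL into about 40 µL; score is relative to mean and spread of the plate; one replicate is shown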
# AID504770: E. coli YBA685 growth inhibition, screen for V. cholerae RctB inhibitors; z-score (no concentration beside the values); E. coli YBA685 rctB-dependent plasmid, OD600 growth, 3 h; stronger effect = lower value; actives 0.27% (n = 130,000); AID 504770;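 active = z-score under -2 on both plates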;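 also: wells of about 30 µL received 100 nL stock; score is relative to mean and SD of the test wells; the first replicate is given; strong numbers were not always called active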
# An asterisk follows results filed as active; nt = no result given.
SMILES,CapD inh,AID504770
COc1ccc(C2C(C(=O)/C=C/c3ccccc3)=C(O)C(=O)N2CCO)cc1 (stereo unspecified),-3.9*,-1
Cc1ccc(C(=O)Sc2n[nH]c(-c3cccs3)n2)cc1,nt,0.15
O=C(Nc1cc(OCC(F)(F)F)cc([N+](=O)[O-])c1)c1cc2ccccc2oc1=O,-0.05,nt
CCOc1ccc2nc(SCC(=O)Nc3cc(Cl)ccc3OC)sc2c1,-0.53,nt
Cc1cccc(-n2ccnc2SCC(=O)N2CCc3ccccc32)c1,-0.38,0.1
CCC(=O)Nc1nc(-c2ccc3c(c2)CC(C)N3S(C)(=O)=O)cs1 (stereo unspecified),nt,-1.6
COc1ccc(OC)c(N2C(=O)C=CC2=O)c1,-1.2,1.4
CN1CCN(c2ccc(/C=c3\sc4nc5ccccc5n4c3=O)cc2[N+](=O)[O-])CC1,-0.57,nt
Cc1ccc(Cc2cnc(NC(=O)/C(C#N)=C\c3ccc(-c4ccc([N+](=O)[O-])cc4)o3)s2)cc1,0.25,nt
CC(C)CN(CC(C)C)c1nnc(NC(=O)NCc2ccco2)s1,-0.48,0.35
COc1ccc(-c2ccnc(-c3ccc(OCc4cccc(F)c4)cc3)n2)cc1,0.09,nt
CCOC(=O)c1sc(NC(=O)c2cccc(OC)c2)nc1-c1ccccc1,0.62,-0.6
CCN1C(=O)C2C(C1=O)N1C(c3ccccc3)C3C(=O)N(CC)C(=O)C3N1C2c1ccccc1 (stereo unspecified),0.16,0.2
CCN1CCCC1CNC(=O)C(NC(=O)c1ccc(C23CC4CC(CC(C4)C2)C3)cc1)C(C)C (stereo unspecified),0.55,0.05
CCOC(=O)c1c(NC(=S)NC(=O)c2ccccc2)sc2c1CC(C(C)C)OC2 (stereo unspecified),-0.34,nt
O=C(NCc1ccccc1)C(=S)NC1CCCC1,-0.99,-0.75
CN1CCN(Cc2c(O)ccc3c(=O)c(-c4ccc(Cl)cc4)c(C(F)(F)F)oc23)CC1,0.23,nt
CC(C(=O)NC1(C#N)CCCCC1)N1CCN(S(=O)(=O)c2ccc(Br)s2)CC1 (stereo unspecified),nt,0.05
O=C(Nc1cccc(Cl)c1)c1ccc(Cl)cc1,-0.54,-0.85
O=C(CC1CC2CCC1C2)NCc1ccc(F)cc1 (stereo unspecified),10,1.2
COC(=O)c1ccccc1NC(=O)C12CC3CC(CC(C3)C1)C2,1,0.1
OCCNCCSc1nnc(-c2ccccc2)n1-c1ccccc1,nt,0.05
O=C(O)CCC(=O)Nc1cccc(O)c1,-0.27,-0.3
O=C(COC(=O)c1ccc2c(=O)n3c(nc2c1)CCC3)Nc1ccccc1,nt,-0.55
CCCn1nnnc1CSc1nnc(-c2cccs2)n1C1CC1,nt,0.3
SMILES,CapD inh,AID504770
Cc1ccc(N2C(=O)C(N3C(=O)c4ccccc4C3=O)C2c2ccc(N(C)C)cc2)cc1Cl (stereo unspecified),0.21,-0.05
O=C(Nc1ccc(N2CCN(Cc3ccccc3)CC2)cc1)c1ncoc1-c1cccs1,nt,-1.5
O=C(NC(=S)Nc1ccc(S(=O)(=O)N2CCOCC2)cc1)c1ccc(Br)o1,-1.1,-0.45
N#CC(C#N)=C(N)SCc1ccccc1,-0.32,-0.05
O=[N+]([O-])c1cc(Cl)c(-n2cccc2)cc1SCc1ccc(Cl)cc1Cl,-0.34,nt
COc1ccc(C2CC(=O)C3=C(C2)Nc2ccccc2N(C(C)=O)C3c2ccccc2)cc1 (stereo unspecified),1.2,0.15
CC1Cc2ccccc2N1C(=O)COC(=O)C1CCN(C(=O)Nc2ccccc2)CC1 (stereo unspecified),nt,0.65
CN1C/C(=C/c2cccc3ccccc23)C(=O)/C(=C/c2ccc3ccccc3c2)C1,-0.26,1.4
CCN(CC)c1ccc(/C=c2\sc3ncnn3c2=O)cc1,1.3,-0.45
N#Cc1cn(-c2ccccc2)nc1-c1cc2ccccc2oc1=O,41,-0.35
CCOC(=O)COc1ccc2c(=O)cc(-c3ccccc3)oc2c1,2.2,-1.1
Oc1ccccc1/C=N/c1ncc(C(F)(F)F)cc1Cl,-0.86,-0.55
CCOC(=O)c1cc(C)n(N(C)c2cc(C(F)(F)F)ccn2)c1C,-0.53,nt
COc1cc(OC)cc(-c2nc3ccccc3c(=O)n2NC(=O)COc2ccc(Cl)cc2Cl)c1,-0.46,nt
CC(C)(C)NC(=O)[C@H]1CC[C@H]2[C@@H]3CC[C@H]4NC(=O)C=C[C@]4(C)[C@H]3CC[C@]12C,-0.15,nt
CCN1CCC(NCc2ccccc2Cl)CC1,-0.43,1.6
CC1(C)CC(=O)C2=C(C1)NC(=O)NC2c1ccc(Cl)cc1 (stereo unspecified),nt,1.1
CCCn1c(CCC(=O)N2CCc3ccccc32)nc2cccnc21,0.22,0.3
CSc1nsc(SC)c1C(=O)NC(=O)N1CCSCC1,-0.45,-0.4
CC(C)C(C)(C#N)NC(=O)CSc1nc(-c2ccccc2)c(-c2ccccc2)o1 (stereo unspecified),nt,1.3
O=C1c2ccccc2S(=O)(=O)N1C(=O)c1cccc2ccccc12,-0.53,nt
Cc1ccnc2nc(C(=O)NCC3COc4ccccc4O3)nn12 (stereo unspecified),nt,0.05
CCN(CC)C(=O)Cn1c(S(=O)(=O)C(C)C)nc2ccccc21,nt,0.35
O=c1c2ccccc2nc(-c2ccco2)n1-c1nccs1,nt,0.15
COC(=O)C(C#N)c1ccccc1[N+](=O)[O-] (stereo unspecified),-0.77,nt

# In the list so far, 7 have an aryl thioether with sulfur outside any ring.
SMILES,CapD inh,AID504770
CCOc1ccc2nc(SCC(=O)Nc3cc(Cl)ccc3OC)sc2c1,-0.53,nt
Cc1cccc(-n2ccnc2SCC(=O)N2CCc3ccccc32)c1,-0.38,0.1
OCCNCCSc1nnc(-c2ccccc2)n1-c1ccccc1,nt,0.05
CCCn1nnnc1CSc1nnc(-c2cccs2)n1C1CC1,nt,0.3
O=[N+]([O-])c1cc(Cl)c(-n2cccc2)cc1SCc1ccc(Cl)cc1Cl,-0.34,nt
CSc1nsc(SC)c1C(=O)NC(=O)N1CCSCC1,-0.45,-0.4
CC(C)C(C)(C#N)NC(=O)CSc1nc(-c2ccccc2)c(-c2ccccc2)o1 (stereo unspecified),nt,1.3

# Following part.
SMILES,CapD inh,AID504770
COc1ccccc1-c1n[nH]n2c1nc(=O)c1ccccc12,-0.19,-1.2
CC(/C=C1\SC(=S)N(CC(=O)Nc2ccccn2)C1=O)=C\c1ccccc1,-0.93,0.1
COc1ccc(C(=O)NCc2cc(C(F)(F)F)cc(C(F)(F)F)c2)cc1,0.51,nt
O=C1CSC(c2cccnc2)N1CCc1ccccn1 (stereo unspecified),0.79,-0.35
Cc1oc(-c2cccc(Cl)c2)nc1CS(=O)(=O)CC(=O)NCc1ccccc1,0.41,0.05
CCCC(=O)Oc1ccc(C2C(C(=O)OCC)=C(N)OC3=C2C(=O)CC(C)(C)C3)cc1 (stereo unspecified),0.13,nt
CC(C1CC1)N(Cc1ccccc1)S(=O)(=O)c1cn(C)c(=O)n(C)c1=O (stereo unspecified),nt,-0.2
NNC(=O)CN1CCCc2ccccc21,nt,-1.9
Cc1cccc(C(=O)Nc2cccc3ccccc23)c1,-0.44,-0.05
CC(=O)NCCn1c(C)cc2ccccc21,0.84,-1
CCC(=O)c1cc(C)ccc1O,0.56,2
O=C1C2CC=C(Cl)CC2C(=O)N1CN1CCN(CN2C(=O)C3CC=C(Cl)CC3C2=O)CC1 (stereo unspecified),0.07,nt
O=C(CCS(=O)(=O)c1cccs1)NC1CCCc2ccccc21 (stereo unspecified),0.3,1.2
CCOC(=O)c1cc(-c2ccc(C)cc2)n(CCC(=O)Nc2nccs2)c1C,-0.21,0.35
COC(=O)C1=C(C)NC2=C(C(=O)CC(C)(C)C2)C1c1ccccc1 (stereo unspecified),5.6,-0.1
CCN(CC)c1ccc2cc(-c3nc(-c4ccc(Br)cc4)cs3)c(=Nc3ccc(C)cc3)oc2c1,-0.43,nt
O=c1cc(-c2ccccc2)sc(=O)[nH]1,-0.77,-0.1
CCC(=O)N1CCc2cc(Br)cc(S(=O)(=O)CC(=O)OC)c21,nt,0.75
CCCCN(C)S(=O)(=O)c1csc(C(N)=O)c1,-0.47,-0.3
OCc1nc(CO)n(Cc2ccccc2)n1,-0.73,-1.1
O=C(c1cc2cc(Br)ccc2o1)N1CCc2c([nH]c3ccccc23)C1,0.65,nt
Cc1c(N=Cc2c(O)n(C)c(=O)c3ccccc23)c(=O)n(-c2ccccc2)n1C,-0.015,-0.85
CCC(C)(C)c1ccc(S(=O)(=O)N2CCN(c3ccc(OC)cc3OC)CC2)cc1,-1.2,nt
CC1(C)CC(=O)C2=C(C1)Nc1ncnn1C2c1ccncc1 (stereo unspecified),5.5,-1.2
CCCCc1ccc2c(N)c(C(=O)Nc3ccc(C(=O)O)cc3)sc2n1,3.6,nt

# Single entries from above:
# Result for O=C(Nc1ccc(N2CCN(Cc3ccccc3)CC2)cc1)c1ncoc1-c1cccs1 in AID504770: -1.5
# Result for Cc1cccc(-n2ccnc2SCC(=O)N2CCc3ccccc32)c1 in AID504770: 0.1

# Continuation:
SMILES,CapD inh,AID504770
O=C(O)C1=C(C(=O)Nc2ccccc2)CCCC1,0.12,-0.65
COCCn1c(N)c(C(=O)N2CCCC2)sc1=S,nt,0.2
CN(Cc1ccccc1)c1nc2c(c(=O)n(C)c(=O)n2C)n1CCSc1nc2ccccc2o1,0.88,nt
CC(=O)c1ccc(S(=O)(=O)NC2CCN(Cc3ccnc4ccccc34)C2)cc1 (stereo unspecified),1.9,nt
CCCCn1cnc2c1c(=O)n(Cc1nc3ccccc3s1)c(=O)n2CCC,nt,-1.1
Cc1ccc(NC(=O)c2oc3ccc(S(=O)(=O)N(C)C4CCCCC4)cc3c2C)cc1C,0.57,-0.05
Cc1ccc(S(=O)(=O)N2CCC(C(=O)C3C(=O)CCCC3=O)CC2)cc1,0.24,nt
Cc1ccc(C(=O)NCC(=O)O)cc1,0.18,nt
O=C(OCCN1CCN(CCCN2c3ccccc3Sc3ccc(C(F)(F)F)cc32)CC1)N1CCN(Cc2ccco2)CC1,-0.01,nt
COC(=O)CSc1nc2nc3c(cn2n1)C(=O)CC(c1ccco1)C3 (stereo unspecified),nt,0
CCOC(=O)c1cnc2ccc([N+](=O)[O-])cc2c1NCc1ccc(C)cc1,-0.44,nt
CCOc1ccc(-n2nc(C(=O)Nc3cnc4ccccc4c3)c3ccccc3c2=O)cc1,-0.59,0.85
Cc1nc2ccccc2c(=O)n1-c1cccc(NC(=O)C(C)C)c1,nt,2.7
N#CCSc1nc2ccc(N3CCOCC3)cc2c(=O)n1CCc1ccccc1,0.74,1.1
Cc1nn(-c2ccccc2)c(OC(=O)C(C)C)c1S(=O)(=O)c1ccccc1,nt,2
CCOC(=O)C1=C(C)Nc2c(C#N)c(SCc3ccccc3)nc(N)c2C1c1ccco1 (stereo unspecified),-0.075,nt
COc1ccc(C)cc1NC(=O)c1ccccc1OC(F)F,nt,-0.25
Cc1[nH]c2ccccc2c1Sc1ccccc1N,1.8,-0.65
Fc1cccc(F)c1N=Cc1cccnc1,0.6,0.1
O=C(NCCCn1ccnc1)c1ccc(Cl)cc1,nt,-0.1
COc1ccc(CCN2C(=O)CCC2(C)C(=O)NCc2cccnc2)cc1OC (stereo unspecified),-0.12,-0.55
Cc1ccc2nsnc2c1S(=O)(=O)NCCOC12CC3CC(CC(C3)C1)C2,-0.39,nt
O=C(CN1CCN(c2ccccn2)CC1)N(Cc1ccccc1)Cc1ccccc1,nt,0.35
O=[N+]([O-])c1cccnc1Oc1ccccc1F,-1.1,nt
N#Cc1ccccc1NC(=O)CC1Nc2ccccc2NC1=O (stereo unspecified),nt,-0.45
SMILES,CapD inh,AID504770
CCCCc1ccc(NC(=S)NNC(=O)CSCc2cccc3ccccc23)cc1,-0.29,nt
Cc1noc2[nH]cnc(=S)c12,-1.1,-1.2
CN(C)S(=O)(=O)Oc1ccsc1C(=O)Nc1cccc(C(F)(F)F)c1,-0.41,nt
O=C(OCCc1ccccc1C(F)(F)F)N1CCN(C(c2ccccc2)c2ccc(Cl)cc2)CC1 (stereo unspecified),-0.24,nt
COc1ccc(/C=N/OCC(=O)Nc2oc(-c3ccccc3)c(-c3ccccc3)c2C#N)cc1OC,0.52,nt
CCOC(=O)C1CCN(c2cc(C(F)(F)F)nc3ccccc23)CC1,-0.15,2.4
COc1cc(S(=O)(=O)n2nnc3ccccc32)ccc1Cl,1.2,nt
COC(=O)Cc1csc2ccc(C)cc12,0.48,0.1
O=C1CCC(=O)N1CCSC(=S)N1CCCC1,0.38,-0.35
COc1ccc(OC)c(C(=O)CSc2nc3cccnc3n2C)c1,nt,-0.2
Nc1nc(-c2cccnc2)nn1C(=O)CCc1ccccc1,0.15,1.4
CCOC(=O)c1ccc(Nc2nnc(-c3cc4ccc(N(CC)CC)cc4oc3=O)s2)cc1,0.53,nt
CCOC(=O)C1CCCN(C(=O)CCCN2C(=O)COc3ccc(C)cc32)C1 (stereo unspecified),0.65,-0.35
O=C(Nc1coc2ccccc12)c1ccc(C(F)(F)F)cc1,0.52,2.2
COc1ccccc1N1CCN(c2ncnc3sc(C(=O)Nc4cc(C)on4)c(C)c23)CC1,-0.48,nt
Cc1nc2sccn2c1-c1csc(Nc2cccc(Cl)c2C)n1,nt,-0.2
Cc1ccc2nc(CSc3nnc(COc4ccccc4Cl)o3)cn2c1,nt,-0.1
O=C(c1cccc([N+](=O)[O-])c1)N1N=C(C(F)(F)C(F)(F)C(F)(F)F)CC1(O)c1ccccc1 (stereo unspecified),0.35,nt

# Compound profiles, from the list above:
# Shown for `COc1ccccc1N1CCN(c2ncnc3sc(C(=O)Nc4cc(C)on4)c(C)c23)CC1` = CapD inh = -0.48; AID504770 = nt
# Shown for `O=C1CCC(=O)N1CCSC(=S)N1CCCC1` = CapD inh = 0.38; AID504770 = -0.35
